Assay outcomes: PubChem BioAssay, National Center for Advancing Translational Sciences (NCATS)
gsp ag: agonists of gsp mutant (McCune-Albright syndrome); actives 0.13% (n = 340,000); gsp mutant cells, cAMP HTRF, 30 min; control for the full effect not named in the record; AID 624287; Potency, µM (highest dose often 76.9 µM), without a hit: at the highest dose activation (cAMP increase), most hits filed as activators; active = well fitted activation curve with a large enough effect; inconclusive = small, poorly fitted or top-dose-only effect, or another doubt; inactive = no such curve, though single readings can be large or run the other way; cell line not stated here;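 further: phosphodiesterase inhibitor Ro 20-1724 added with compounds to block cAMP breakdown; potency means the concentration at half of the fitted maximal effect; nearly all actives have a fitted effect of over 60% in size; about a fifth of the inactives were tested at one dose only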
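Cells in DMEM/10% FBS with G418 were pretreated with compounds in DMSO plus […] (300 uM stock) for 30 min at 37C. cAMP was measured by HTRF (cAMP-d2 plus anti-cAMP antibody-K) after 30 min at room temperature.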
PINK1 modulator: PINK1 expression modulation; PINK1 immunofluorescence, high-content cytometry, 24 h; Potency, µM (highest dose often 76.6 µM), without a hit: at the top dose activation (PINK1 increase), actives largely listed as activators; actives 0.2% (n = 410,000); AID 624263; active = well fitted activation curve with a large enough effect; inconclusive = small, poorly fitted or top-dose-only effect; inactive = flat fitted curve, though single readings scatter; cell line not stated here;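 further: potency means the concentration at half of the fitted maximal effect; % of control where 0% means no effect; nearly all actives have a fitted effect of over 65% in size; a mitochondrial uncoupler was the plate control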
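Stable cell line treated 24 h with compounds at 5 concentrations (CCCP controls), then fixed and immunostained for PINK1 plus nuclear and cell stains; PINK1 immunofluorescence quantified by laser-scanning microplate cytometry.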
Menin-MLL FL inh: displaces fluorescein MLL peptide from human menin; Fluorescence polarization, fluorescein-MLL peptide displacement from menin; FP activity change, % at 61.4 µM; 290,000 tested, under 10 active; AID 1766; inconclusive = falling polarisation curve, or a change in total fluorescence; inactive = total fluorescence flat and polarisation flat or rising; no compound was filed as active; the % refers to the polarisation; negative = inhibition;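 further: % of control where 0% means no effect; inhibitors lower the polarisation; unlabelled MLL peptide was the positive control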
ClpP mod: qHTS Assay for Activators of ClpP; ATP-dependent Clp protease proteolytic subunit (Bacillus subtilis (strain 168)), P80244; purified B. subtilis ClpP, FRET peptide cleavage, 20 min; Potency, µM (highest dose often 57.5 µM), without a hit: at the top dose activity change, negative = active; actives 1.9% (n = 340,000); AID 651965, 2013; active = well fitted falling curve with a large enough effect; inconclusive = small, poorly fitted or top-dose-only effect; inactive = no such curve, though single readings can be large or run the other way; further: potency means the concentration at half of the fitted maximal effect; the source files actives as falling curves though it sought activators and does not explain the sign; nearly all actives have a fitted effect of over 65% in size; many hits overshoot -100%
Target sequence (P80244 whole entry, looked up): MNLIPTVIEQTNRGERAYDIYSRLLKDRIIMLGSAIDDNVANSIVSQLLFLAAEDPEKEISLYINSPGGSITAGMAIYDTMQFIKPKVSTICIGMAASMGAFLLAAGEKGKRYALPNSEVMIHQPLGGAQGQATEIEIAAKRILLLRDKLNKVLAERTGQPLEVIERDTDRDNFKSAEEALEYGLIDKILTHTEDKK
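FRET quenching reversal measured ClpP activation: 10 microg/mL B. subtilis ClpP at pH 8 with the FRET-FV decapeptide, read at 430 nm after 320 nm excitation. The 20-min minus 0-min signal was scaled between DMSO/no-enzyme wells and ADEP (5.8 microM final).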
Sfp PPTase inh: Sfp phosphopantetheinyl transferase inhibition; actives 3.5% (n = 310,000); Biochemical Sfp PPTase activity, qHTS; Potency, µM, for inactives: max response, negative = inhibition, usual class: inhibitors; AID 1490; active means well fitted inhibition curve with a large enough effect; inconclusive means small, poorly fitted or top-dose-only effect, or another doubt; inactive means no such curve, though single readings can be large or run the other way;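 further: the enzyme is Sfp with the accession as filed and its product quenches rhodamine fluorescence; potency means the concentration at half of the fitted maximal effect; 0% = enzyme reaction without inhibitor and -100% = no enzyme wells; top concentration of the series not given in the record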
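Buffer: 50 mM Hepes-Na pH 7.6, 10 mM MgCl2, 0.01% Nonidet P-40, 0.01% BSA. Enzyme 15 nM, pre-exposed to compound 15 min; substrates then added and fluorescence change tracked over 30 min.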
gsp antag: antagonizes gsp, the McCune-Albright syndrome mutation | gsp-mutant cells, cAMP HTRF, 30 min; control for the full effect not named in the record | Potency, µM (doses to about 76.9 µM), without a hit: at the highest dose activity change, negative = inhibition, hits mostly inhibitors | actives 0.4% (n = 340,000) | AID 624288; active = falling curve of any shape with a large fitted effect; inconclusive = falling curve, mostly with a smaller effect; inactive = flat or rising curve; cell line not stated here;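 further: intracellular cAMP measured with PDE inhibitor Ro 20-1724 present during compound exposure; potency means the concentration at half of the fitted maximal effect; on the % scale 0 is the no-effect control and ±100 the full control effect; nearly all actives have a fitted effect of over 65% in size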
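Cells, 2000/well, grown 16–24 h in DMEM 10% FBS with 0.5 mg/ml G418, then compounds plus […] (300 uM addition stock), 30 min at 37C. cAMP read by HTRF (cAMP-d2 and anti-cAMP antibody-K in lysis buffer) after 30 min RT.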
D2 ag: human D2 receptor agonism in beta-arrestin assay; activation, % (concentration not given with the values); DiscoveRx PathHunter D2 beta-arrestin, luminescence, 90 min; 100% = 57 uM dopamine signal; AID 624465; P14416; actives 0.084% (n = 360,000); in the data active = activation above about 40%; inconclusive = about 15% to 40%; inactive = below about 15%; further: compound concentration not given in the record; the text of the record calls up to 30% inactive
Target sequence (P14416 whole entry, looked up): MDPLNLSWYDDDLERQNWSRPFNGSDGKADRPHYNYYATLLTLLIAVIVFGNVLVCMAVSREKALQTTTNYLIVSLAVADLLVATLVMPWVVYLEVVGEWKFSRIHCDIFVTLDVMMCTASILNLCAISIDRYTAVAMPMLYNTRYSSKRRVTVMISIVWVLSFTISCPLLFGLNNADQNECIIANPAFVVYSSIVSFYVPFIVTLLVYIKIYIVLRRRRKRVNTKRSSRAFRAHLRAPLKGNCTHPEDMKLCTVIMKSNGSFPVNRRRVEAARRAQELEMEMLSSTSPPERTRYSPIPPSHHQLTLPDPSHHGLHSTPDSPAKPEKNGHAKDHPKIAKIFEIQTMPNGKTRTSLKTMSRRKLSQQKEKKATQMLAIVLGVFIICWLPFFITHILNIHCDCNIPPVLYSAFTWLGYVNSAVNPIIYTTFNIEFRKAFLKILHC
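Agonist mode: compounds alone added to overnight-plated D2 PathHunter cells for 90 min at 37 C, with 57 uM final dopamine (EC100) defining full response. Beta-arrestin recruitment detected by chemiluminescent reagent, read after 1 h at ambient temperature.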
* marks the source's active call; other numbers are inactive results; u = inconclusive; x = no result given; & = joins results of further samples; [ ] = another dose, or the depositor's remark.

structure,gsp ag,PINK1 modulator,Menin-MLL FL inh,ClpP mod,Sfp PPTase inh,gsp antag,D2 ag
COc1ccc(NC(=O)c2sccc2-n2cccc2)cc1,3%[15.4 µM],0.7%,-0.5,-25%,2%,-2%,-1.5
CC1CCC(C(C)C)C(OC(=O)CSc2nc(N)cc(=O)[nH]2)C1 (configuration not stated),2%,4.5%[38.3 µM],8.6,-0.4%,10%,-7%,-1.7
CC(NCc1cccnc1)c1ccccc1 (configuration not stated),1%[15.4 µM],0.6%,5.3,-2.7%,13%,8%,-4.4
CCN1C(=O)c2cccc3c(S(=O)(=O)Nc4c(C)n(C)n(-c5ccccc5)c4=O)ccc1c23,4%,-1.7%,-3.2,-1.9%,12%,-1%[15.4 µM],-0.6
O=C(c1nn2c(C(F)(F)F)cc(-c3ccccc3)nc2c1Cl)N1CCOCC1,-13%,1.3%,1.2,-0.2%,-3%,-20%,-3.5
O=C(NC1CCN(Cc2ccccc2)CC1)c1cccc(S(=O)(=O)Nc2ccc(Br)cc2)c1,-8%,7.5%,x,-1.0%,x,-18%,2.7
COC(=O)CC1(C(=O)OC)Oc2ccccc2C(=O)N1c1ccc(F)cc1F (configuration not stated),-1%[15.4 µM],-1.9%,x,0.5%,x,3%,-1.3
Cc1ccn2cc(CNS(=O)(=O)c3cccs3)nc2c1,7%[15.4 µM],1.1%,-2.3,x,-30%,4%,0.0

Additional records.
structure,gsp ag,PINK1 modulator,Menin-MLL FL inh,ClpP mod,Sfp PPTase inh,gsp antag,D2 ag
COc1ccc(NC(=O)CCCn2nc(C)c3c(C)n(-c4ccccc4)nc3c2=O)cc1,-5%,0.3%,x,-2.8%,7%,-13%,0.0
COc1ccc(NC(=O)CSc2nnnn2-c2ccc(OC)cc2)cc1,-6%[15.4 µM],2.6%,1.0,-3.6%,1%,3%,0.5
CC1(C(=O)Nc2ccccc2F)CCN1C(=O)Cc1ccc(-c2ccccc2)cc1 (configuration not stated),x,1.3%,x,-1.9%,x,x,3.9
O=c1nc(Nc2ccccc2)oc2ccccc12,14%[15.4 µM],1.8%,1.1,x,21%,0%,-5.5
C[C@@H]1CN([C@H](C)CO)S(=O)(=O)c2ccc(Br)cc2O[C@H]1CN(C)C(=O)Nc1ccc(F)cc1,1%,2.4%,x,-2.9%,x,x,-7.6
CCN(CC)CCC(=O)N1c2ccccc2Sc2ccc(NC(=O)OC)cc21,u,0.1%,0.0,1.7%,7%,5%,-0.9
O=C(OCCCc1cc2ccccc2c(=O)o1)c1ccco1,-7%,0.0%,x,-8.0%,x,-12%,-2.7
Cc1nc(-c2ccccn2)nc(SCC(=O)N2CCOCC2)c1Cl,u,-0.8%,0.2,-4.1%,16µM*,0%,-9.2

Continuation:
structure,gsp ag,PINK1 modulator,Menin-MLL FL inh,ClpP mod,Sfp PPTase inh,gsp antag,D2 ag
CCn1c(SCC(=O)N2CCc3ccccc32)nc2c(c1=O)SC(C)C2 (configuration not stated),1%,0.4%,1.3,0.1%,1%,-3%,-7.9
COc1ccc(/C=C(/NC(=O)c2ccco2)C(=O)Nc2cccc(C(=O)O)c2)cc1,-63%[inhibitor],-1.8%,-6.4,x,19%,3%,8.0
Cc1cccc(S(=O)(=O)N(C)C[C@@H]2OCc3cnnn3CCCC(=O)N([C@@H](C)CO)C[C@@H]2C)c1,-20%,2.2%,x,-1.1%,x,x,0.0
Cc1cccc2cc(CN(CCCO)C(=O)Nc3ccc(Cl)cc3)c(=O)[nH]c12,16%,2.2%,3.0,-19%,-8%,-9%,-1.4
COc1cc(C(=O)Nc2cccc(-c3nncn3C)c2)cc(OC)c1OC,9%,4.2%,0.9,-2.9%,11%,-7%,1.5
C=CCN(C(=O)Nc1ccc(Cl)cc1)C1CC(=O)N(c2ccc(OC)cc2)C1=O (configuration not stated),-28%,u,1.7,-0.1%,8%,-16%,4.0
Cc1cc(NS(=O)(=O)c2ccc(NC(=O)COc3ccccc3C(C)(C)C)cc2)no1,-5%[15.4 µM],0.7%,x,1.3%,5%,u,3.2
O=C(c1ccccc1)N(CCCl)C(=O)N(CCCl)C(=O)c1ccccc1,u,-0.8%,x,-1.0%,x,x,-6.4

Continued.
structure,gsp ag,PINK1 modulator,Menin-MLL FL inh,ClpP mod,Sfp PPTase inh,gsp antag,D2 ag
CSC1=C(C#N)C(C)C2=C(CC(C)(C)CC2=O)N1 (configuration not stated),-17%,-0.5%,6.6,-11%,8%,-3%,-1.7
COc1ccc(-c2cc(NC(C)=O)c3ncc(-c4cccc(C(C)=O)c4)n3c2)cc1OC,x,6.5%,x,-5.1%,x,x,11
Cc1ccccc1CC(=O)OCC(=O)Nc1ccc(C)c(S(=O)(=O)N2CCCCC2)c1,-30%[inhibitor],3.2%,x,1.3%,x,-32%,-5.9
Cc1nnc(N2CCC(C(=O)NC3CCC(C)CC3)CC2)c2nn(-c3ccc(Cl)cc3)c(C)c12 (configuration not stated),8%,-1.5%&0.7%,-1.6,-11%&-16%,-3%,-7%,0.5
Cc1n[nH]c(=O)nc1NCCc1ccccc1,21%,x,-2.0,-0.5%,0%,4%,0.9
CCC(C)C(NC(N)=O)C(=O)Nc1ccc(OCc2ccccc2)cc1 (configuration not stated),14%,u,-2.4,0.2%,-13%,18%,9.4
CCOc1ccccc1NC(=O)NC1(C(=O)NCC2CCCO2)CCCCC1 (configuration not stated),-6%[15.4 µM],5.7%,1.8,0.7%,15%,11%,-0.6
COc1cc(NS(=O)(=O)c2ccc(NC(=O)c3ccc(C)o3)cc2)nc(OC)n1,-10%,7.2%[38.3 µM],0.3,-0.4%,-12%,-5%,-1.3

Additional entries
structure,gsp ag,PINK1 modulator,Menin-MLL FL inh,ClpP mod,Sfp PPTase inh,gsp antag,D2 ag
CCCCC(=O)Nc1ccc(C(=O)N2CCCC(C(=O)OCC)C2)cc1 (configuration not stated),-3%,1.8%[38.3 µM],1.5,0.5%,5%,1%,-2.0
O=[N+]([O-])c1ccc(/C=[N+](\[O-])CCO)o1,-36%[inhibitor],-0.6%,1.7,-0.2%,14%,1%,u
CC(C)c1ccc(NC(=O)CN2C(=O)NC(C)(C3CC3)C2=O)cc1 (configuration not stated),5%,4.5%,x,-2.9%,x,0%,-0.3
CSc1nnc(CCNC(=O)OC(C)(C)C)o1,-25%,7.0%,2.3,0.1%,12%,7%,-5.3
COc1cccc(-n2nc(C(C)=O)c(=O)[nH]c2=O)c1,10%[15.4 µM],2.5%,-0.3,x,9%,-6%,-5.0
COc1ccc(C2CC(c3ccccc3OC(C)=O)=NN2C(C)=O)cc1 (configuration not stated),-3%,0.2%,-0.8,-3.2%,7%,6%,-4.8
Cc1c(C(=O)N2CCN(Cc3ccc4c(c3)OCO4)CC2)sc2ncnc(N3CCN(c4ccccc4)CC3)c12,-27%,1.3%,0.5,1.7%,10%,u,-3.1
CCOc1ccc2nc(SCC(=O)NCc3ccc(OC)c(OC)c3)[nH]c2c1,-13%,-1.0%,-1.1,0.5%,-1%,-5%,-4.3

The list continues:
structure,gsp ag,PINK1 modulator,Menin-MLL FL inh,ClpP mod,Sfp PPTase inh,gsp antag,D2 ag
Cc1ccc(C)c(NS(=O)(=O)c2ccc3c(c2)NC(=O)CO3)c1,-41%[inhibitor],0.5%,x,-1.5%,17%,-3%,-4.6
O=C1/C(=C\c2ccc(Br)o2)Cc2ccccc21,-1%[15.4 µM],0.0%,3.3,1.2%,-19%,-24%,-3.1
COc1ccc(CCNC(=O)C2CCCN(S(=O)(=O)N3CCCCCC3)C2)cc1OC (configuration not stated),30%,1.0%,-2.3,-0.3%,18%,-1%,-1.0
Cc1[nH]c2ccccc2c1CCNC(=O)c1ccc2nccnc2c1,1%[15.4 µM],1.0%,-0.7,-8.1%,2%,-7%,6.7
Cc1nnc2sc(-c3cccc(NC(=O)c4cccnc4)c3)nn12,26%,1.4%[38.3 µM],1.7,-1.8%,12%,-12%,-4.2
CC1=NOC(=O)/C1=C/c1ccc(O)c(Cl)c1,u,12%,u,x,-35%,-12%,-3.2
Nc1nnc(SCC(=O)Nc2nccs2)s1,9%[15.4 µM],-0.6%,-0.8,x,-4%,15%,-2.9
COc1cccc(CN2CCN(C(=O)c3ccco3)CC2)c1,10%,0.3%,-3.3,2.2%,u,-2%,70*

Next section
structure,gsp ag,PINK1 modulator,Menin-MLL FL inh,ClpP mod,Sfp PPTase inh,gsp antag,D2 ag
O=C(CN1CCN(Cc2ccccc2)CC1)NCC1COc2ccccc2O1 (configuration not stated),-24%,0.0%,-1.1,3.6%,-2%,4%,-1.1
Clc1ccccc1C1=CC(c2ccco2)n2nnnc2N1 (configuration not stated),-50%[inhibitor],-1.4%,-2.0,x,-15%,-5%,2.8
CC1Sc2ccc(S(=O)(=O)CCC(=O)N3CCc4ccccc43)cc2NC1=O (configuration not stated),-23%,-0.7%,x,0.0%,10%,-13%,-1.0
CCOC(=O)c1cnc2c(Cl)cc(Cl)cc2c1NCCCN1CCOCC1,-11%,4.7%,0.6,-3.5%,u,-16%,0.2
Cn1c(=O)[nH]c(=O)c2c1nc(OC(=O)c1ccccc1)n2CC(O)COc1ccccc1 (configuration not stated),-30%,-1.9%,1.5,0.7%,13%,0%,-3.0
CCOC(=O)c1cccc(NC(=O)CCn2c(=O)oc3ccccc32)c1,17%,2.0%&-0.4%,-1.0,-2.1%,12%,-11%,-0.8
COc1cccc(NC(=O)NC2(C(F)(F)F)Oc3ccccc3O2)c1,-36%[inhibitor],-3.4%,1.6,-1.3%,-7%,-20%,1.6
CCOC(=O)c1cc(-c2ccccc2)n(CCC(=O)N2CCN(c3ccc(OC)cc3)CC2)c1C,8%,0.1%,-3.1,0.5%,-1%,-7%,2.1
Cc1nc2ccc(S(=O)(=O)N(C)CC(=O)NCc3ccc(N(C)C)cc3)cc2s1,13%,-0.4%,x,-1.2%,14%,-5%,-0.9
CCCCN(C)C(=O)C1CCN(Cc2ccccn2)CC1,12%,-1.0%,-5.2,0.5%,u,8%,3.1
